Bioassay records as filed in PubChem.
Vaccinia stage = blocks a specific stage of Vaccinia orthopoxvirus infection; Vaccinia-infected cells, mCherry/Venus stage reporter fluorescence; hits give low values; some inactives read as strong as hits; activity change (mCherry), % (concentration not given with the values); 0.01% of 89,000 active; AID 1053133;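 active means mCherry past -33% and 40 or more points under the early reporter, replicates agreeing; inconclusive means past -33% without that gap or agreement; tested in A549 cells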;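 further: scaled between vehicle wells and reference inhibitor wells; 23 nL library stock went into each well; one replicate is shown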
Vaccinia stage Venus = second read-out of Vaccinia stage, no call of its own (marks repeat the call); activity change (Venus), %; measured here: Venus reporter, other viral stage;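 negative = less Venus signal; first of two replicates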
Active calls of the source: *; ? = inconclusive; / = not tested or not shown.

SMILES | Vaccinia stage | Vaccinia stage Venus
COc1ccc(NC(=O)N(C)C[C@@H]2OCCCC[C@H](C)Oc3ccc(NC(=O)C4CCCCC4)cc3C(=O)N([C@@H](C)CO)C[C@H]2C)cc1 | -21 | -14
C[C@@H]1CN([C@@H](C)CO)C(=O)c2cc(NC(=O)Cc3ccccc3)ccc2O[C@@H](C)CCCCO[C@H]1CN(C)Cc1ccc2c(c1)OCO2 | ? | /
C[C@@H]1CN([C@@H](C)CO)C(=O)CCCn2cc(nn2)CO[C@@H]1CN(C)Cc1ccc(Oc2ccccc2)cc1 | 12 | 8
CC(C)NC(=O)Nc1ccc2c(c1)C(=O)N([C@H](C)CO)C[C@@H](C)[C@H](CN(C)C(=O)NC(C)C)O2 | 6 | 8
COc1ccc(NC(=O)Nc2ccc3c(c2)CC(=O)N([C@@H](C)CO)C[C@@H](C)[C@H](CN(C)S(=O)(=O)c2ccccc2)O3)cc1 | 7 | 3
COc1ccc(NC(=O)N[C@H]2C=C[C@@H](CC(=O)NC3CCC3)O[C@H]2CO)cc1 | -1 | 3
CCCNC(=O)N1CC2(CCN(CC3CC3)CC2)c2c(n(C)c3cc(OC)ccc23)[C@H]1CO | -10 | -5
COC(=O)C(CC#Cc1ccc2c(c1)[C@]1(C(=O)N2)[C@H](C(=O)N2CCN(c3ncccn3)CC2)[C@H]2C(=O)O[C@H](c3ccccc3)[C@H](c3ccccc3)N2[C@@H]1c1ccc(O)cc1)C(=O)OC | 19 | 8
O=C(c1cccc(F)c1)N1CC(=O)N2[C@H](CO)[C@H](c3ccc(C#Cc4ccc(F)cc4)cc3)[C@H]2C1 | ? | /
C[C@@H]1CN([C@H](C)CO)C(=O)c2cc(C3=CCCC3)cnc2O[C@H]1CN(C)S(=O)(=O)c1cn(C)cn1 | 7 | 11
C[C@H](CO)N1C[C@H](C)[C@H](CN(C)Cc2ccc(O)cc2)OCc2cnnn2CCCC1=O | 11 | 7
COc1cccc(NC(=O)N(C)C[C@@H]2Oc3cc(-c4ccccc4F)ccc3S(=O)(=O)N([C@@H](C)CO)C[C@@H]2C)c1 | ? | /
O=C(c1cccnc1)N1C[C@@H]2[C@H](c3ccccc31)[C@@H](CO)N2C(=O)Nc1ccccc1Cl | -1 | 8
O=C(Nc1ccccc1)N[C@H]1CC[C@@H](CCNC(=O)c2ccccc2F)O[C@@H]1CO | -6 | -7
CC(=O)N(C)C[C@H]1Oc2cc(C#Cc3cccc(F)c3)ccc2S(=O)(=O)N([C@H](C)CO)C[C@H]1C | ? | /
COc1cccc(S(=O)(=O)N[C@H]2CC[C@@H](CC(=O)NCc3ccc(F)cc3)O[C@H]2CO)c1 | -3 | -5
C[C@@H]1CN([C@@H](C)CO)C(=O)Cc2cc(NC(=O)C3CCCCC3)ccc2O[C@H]1CN(C)S(C)(=O)=O | 6 | 8
Cc1ccc(-c2cnc3c(c2)C(=O)N([C@H](C)CO)C[C@H](C)[C@@H](CN(C)Cc2ccccc2C(=O)O)O3)cc1 | 24 | 14
COc1ccc(NC(=O)Nc2ccc3c(c2)CC(=O)N([C@@H](C)CO)C[C@@H](C)[C@@H](CN(C)Cc2ccc(C(=O)Nc4ccccc4N)cc2)O3)cc1 | 7 | 9
COc1cccc(NC(=O)N[C@H]2CC[C@H](CC(=O)Nc3ccc(-c4ccccc4)cc3)O[C@H]2CO)c1 | -12 | -8
C[C@@H]1CN([C@H](C)CO)C(=O)c2cc(NC(=O)c3ccncc3)ccc2O[C@@H]1CN(C)S(=O)(=O)c1cn(C)cn1 | 12 | 9
C[C@H](CO)N1C[C@H](C)[C@H](CN(C)Cc2cccnc2)Oc2ncc(C#Cc3cccnc3)cc2C1=O | 23 | 11
Cc1noc(C)c1NC(=O)N(C)C[C@H]1Oc2ccc(NC(=O)Cc3cn(C)c4ccccc34)cc2C(=O)N([C@H](C)CO)C[C@H]1C | 23 | 5
CCCNC(=O)C[C@H]1CC[C@@H]2[C@H](COc3ccc(NC(=O)C4CCCC4)cc3C(=O)N2C)O1 | 1 | 1
C[C@@H]1CCCCO[C@@H](CN(C)C(=O)Cc2ccccc2)[C@@H](C)CN([C@@H](C)CO)C(=O)c2cc(NS(C)(=O)=O)ccc2O1 | 4 | 7
COc1ccc(-c2cn(CC[C@@H]3CC[C@@H](NC(=O)Cc4ccccn4)[C@@H](CO)O3)nn2)cc1 | 5 | 6
C[C@@H]1CCCCO[C@H](CN(C)Cc2ccc(C(F)(F)F)cc2)[C@H](C)CN([C@@H](C)CO)C(=O)c2cc(NS(=O)(=O)c3cccs3)ccc2O1 | ? | /
C[C@@H]1CCCCO[C@@H](CN(C)S(=O)(=O)c2ccc(F)cc2)[C@H](C)CN([C@@H](C)CO)C(=O)c2cc(NS(=O)(=O)c3ccccc3)ccc2O1 | ? | /
CO[C@H](CN(C)S(=O)(=O)c1ccc(F)cc1)[C@H](C)CN(Cc1ccccc1Cl)[C@H](C)CO | -14 | -6
C[C@@H]1CN([C@@H](C)CO)C(=O)c2cc(C3=CCCCC3)cnc2O[C@H]1CN(C)C(=O)c1ccc(F)cc1 | -22 | -13
Cc1noc(C)c1NC(=O)Nc1ccc2c(c1)CC(=O)N([C@@H](C)CO)C[C@@H](C)[C@@H](CN(C)C(=O)Nc1ccccc1)O2 | 10 | 12
CCC(=O)N1C[C@H](C)[C@@H](OC)CN(C)C(=O)c2cc(NC(=O)CC(F)(F)F)ccc2OC[C@H]1C | 15 | 25
O=C(Nc1ccc2c(c1)[C@H]1C[C@@H](CC(=O)N3CCc4ccccc4C3)O[C@@H](CO)[C@H]1O2)c1cccnc1 | -1 | 5
C[C@H](CO)N1C[C@H](C)[C@H](CN(C)S(=O)(=O)c2cn(C)cn2)Oc2ncc(-c3cccc(C(F)(F)F)c3)cc2C1=O | 11 | 9
CNC[C@H]1Oc2c(NC(=O)Nc3ccccc3)cccc2C(=O)N([C@@H](C)CO)C[C@H]1C | 5 | 3
C[C@H]1CN([C@@H](C)CO)S(=O)(=O)c2ccc(C3=CCCC3)cc2O[C@@H]1CN(C)C(=O)Nc1ccc2c(c1)OCO2 | ? | /
COc1cccc(S(=O)(=O)N2CCCCN3[C@@H](CO)[C@@H](c4ccc(C#CC(C)C)cc4)[C@@H]3C2)c1 | -25 | -26
C[C@@H]1CN([C@H](C)CO)C(=O)Cc2cc(NS(C)(=O)=O)ccc2O[C@H]1CN(C)Cc1ccc(Cl)c(Cl)c1 | -16 | -12
CO[C@H]1CN(C)C(=O)c2cc(NC(=O)Nc3ccccc3)ccc2OC[C@@H](C)N(C(=O)CN(C)C)C[C@@H]1C | -1 | 3
C[C@H](CO)N1C[C@H](C)[C@H](CN(C)CC2CC2)Oc2ccc(NS(=O)(=O)c3cccs3)cc2CC1=O | 0 | 0

Entries shown so far that contain a thiophene ring, fused or not, in the order listed:
SMILES | Vaccinia stage | Vaccinia stage Venus
C[C@@H]1CCCCO[C@H](CN(C)Cc2ccc(C(F)(F)F)cc2)[C@H](C)CN([C@@H](C)CO)C(=O)c2cc(NS(=O)(=O)c3cccs3)ccc2O1 | ? | /
C[C@H](CO)N1C[C@H](C)[C@H](CN(C)CC2CC2)Oc2ccc(NS(=O)(=O)c3cccs3)cc2CC1=O | 0 | 0

(listing goes on)
SMILES | Vaccinia stage | Vaccinia stage Venus
C[C@H](CO)N1C[C@H](C)[C@H](CN(C)Cc2ccc3c(c2)OCO3)OCCCC[C@H](C)Oc2ccc(NC(=O)Nc3ccc4c(c3)OCO4)cc2C1=O | ? | /
C[C@@H]1CN([C@@H](C)CO)C(=O)c2cc(NS(=O)(=O)c3cn(C)cn3)ccc2O[C@H]1CN(C)Cc1ccncc1 | 14 | 3
O=C(C[C@H]1C[C@H]2c3cc(NC(=O)Nc4ccc(F)cc4)ccc3O[C@H]2[C@@H](CO)O1)NC1CCCC1 | 5 | 5
COc1ccc(C#Cc2ccc([C@@H]3[C@H](CO)N4C(=O)CN(C(=O)Nc5ccccc5F)C[C@@H]34)cc2)cc1 | ? | /
Cc1ccc(-c2ccc3c(c2)O[C@H](CN(C)Cc2ccncc2)[C@@H](C)CN([C@H](C)CO)S3(=O)=O)cc1 | ? | /
O=C(NCC1CCCCC1)[C@H]1[C@H](CO)[C@H]2Cn3c(cccc3=O)[C@@H]1N2CCc1ccccc1 | 16 | 4
COc1ccc2c3c([nH]c2c1)[C@@H](CO)N(C(=O)Nc1ccc(F)cc1)CC31CN(Cc2cc(-c3ccccc3)on2)C1 | -21 | -15
O=C(C[C@@H]1CC[C@@H](NS(=O)(=O)c2ccc(F)cc2)[C@@H](CO)O1)N1CCN(c2ccccc2)CC1 | 8 | 2
COCC(=O)N(C)C[C@@H]1Oc2cc(-c3ccc(C#N)cc3)ccc2S(=O)(=O)N([C@H](C)CO)C[C@H]1C | 8 | 4
C[C@@H]1CCCCO[C@@H](CN(C)S(C)(=O)=O)[C@@H](C)CN([C@H](C)CO)C(=O)c2cc(NC(=O)c3ccccc3)ccc2O1 | 1 | 11
COCC(=O)Nc1ccc2c(c1)OC[C@@H](C)N(Cc1ccccc1F)C[C@H](C)[C@@H](OC)CN(C)C2=O | -7 | -6
C/C=C/c1ccc2c(c1)O[C@@H](CN(C)Cc1ccccn1)[C@@H](C)CN([C@H](C)CO)S2(=O)=O | -1 | 7
C[C@H](CO)N1C[C@H](C)[C@H](CN(C)C(=O)Cc2ccncc2)Oc2ncc(C#C[C@@H](C)O)cc2C1=O | 11 | 6
C[C@H]1CCCCO[C@@H](CN(C)S(=O)(=O)c2ccc(Cl)cc2)[C@@H](C)CN([C@@H](C)CO)C(=O)c2cc(NS(C)(=O)=O)ccc2O1 | -24 | -15
CCC(=O)N1CC2(C1)CN(C(C)=O)[C@H](CO)c1[nH]c3cc(OC)ccc3c12 | 16 | 0
COc1cccc(CNC(=O)C[C@@H]2CC[C@H](NC(=O)C3CC3)[C@@H](CO)O2)c1 | 4 | 4
O=C(c1ccncc1)N1CC2(C1)[C@H](c1ccccc1)[C@H](CO)N2Cc1ccccn1 | 2 | 5
O=C1CN(S(=O)(=O)Cc2ccccc2)C[C@H]2[C@@H](c3ccc(C#Cc4cccnc4)cc3)[C@@H](CO)N12 | -5 | -5
C[C@@H](NC(=O)C[C@H]1CC[C@@H](NC(=O)Cc2ccccn2)[C@H](CO)O1)c1ccccc1 | -1 | -1
C[C@H]1CN([C@@H](C)CO)C(=O)c2cc(NS(C)(=O)=O)ccc2O[C@@H]1CN(C)Cc1ccc(C(F)(F)F)cc1 | -19 | -11

Taken from the results shown for reference:
SMILES | Vaccinia stage | Vaccinia stage Venus
C[C@H](CO)N1C[C@H](C)[C@H](CN(C)Cc2ccc3c(c2)OCO3)OCCCC[C@H](C)Oc2ccc(NC(=O)Nc3ccc4c(c3)OCO4)cc2C1=O | ? | /
C[C@@H]1CN([C@@H](C)CO)C(=O)c2cc(NS(=O)(=O)c3cn(C)cn3)ccc2O[C@H]1CN(C)Cc1ccncc1 | 14 | 3

Following part.
SMILES | Vaccinia stage | Vaccinia stage Venus
CCCNC(=O)N(C)C[C@H]1Oc2ncc(C#CC3CC3)cc2C(=O)N([C@H](C)CO)C[C@H]1C | 20 | 8
CCS(=O)(=O)N1CC2(CN(Cc3ccccc3F)[C@H](CO)c3[nH]c4cc(OC)ccc4c32)C1 | 19 | 10
C[C@H]1CN([C@@H](C)CO)C(=O)c2cc(NC(=O)Nc3ccccc3)ccc2O[C@H]1CN(C)S(=O)(=O)c1ccc(Cl)cc1 | -25 | -15
CS(=O)(=O)N1CC2(C1)[C@H](c1ccccc1)[C@H](CO)N2Cc1ccc(F)cc1 | 10 | 8
C[C@H]1CN([C@@H](C)CO)C(=O)c2ccccc2-c2ccccc2CO[C@@H]1CN(C)C(=O)[C@@H]1CCCN1C | 16 | 8
CC(C)CC#Cc1ccc2c(c1)O[C@H](CN(C)C(=O)NC1CCCC1)[C@H](C)CN([C@H](C)CO)S2(=O)=O | ? | /
C[C@H](O)C#Cc1ccc2c(c1)O[C@@H](CN(C)Cc1ccccn1)[C@@H](C)CN([C@H](C)CO)S2(=O)=O | 15 | 12
COc1ccc(NC(=O)N[C@@H]2CC[C@H](CCn3cc(-c4ccccn4)nn3)O[C@H]2CO)cc1 | -4 | -1
C[C@@H]1CN([C@H](C)CO)C(=O)Cc2cc(NC(=O)CCC(F)(F)F)ccc2O[C@H]1CN(C)C(=O)Nc1ccc(F)cc1 | 11 | 6
C[C@H]1CN([C@@H](C)CO)S(=O)(=O)c2ccc(-c3ccccc3)cc2O[C@H]1CN(C)C(=O)c1ccc2c(c1)OCO2 | ? | /
COc1ccccc1S(=O)(=O)N(C)C[C@@H]1OCc2ccccc2-c2ccccc2C(=O)N([C@@H](C)CO)C[C@H]1C | -3 | -5
Cc1noc(C)c1NC(=O)N(C)C[C@H]1Oc2ccc(NS(=O)(=O)c3cn(C)cn3)cc2CC(=O)N([C@H](C)CO)C[C@H]1C | 7 | 13

An excerpt of these results, with each value named:
COc1ccc(-c2cn(CC[C@@H]3CC[C@@H](NC(=O)Cc4ccccn4)[C@@H](CO)O3)nn2)cc1
  Vaccinia stage: 5	Vaccinia stage Venus: 6

C[C@@H]1CCCCO[C@H](CN(C)Cc2ccc(C(F)(F)F)cc2)[C@H](C)CN([C@@H](C)CO)C(=O)c2cc(NS(=O)(=O)c3cccs3)ccc2O1
  Vaccinia stage: ?	Vaccinia stage Venus: /

C[C@@H]1CCCCO[C@@H](CN(C)S(=O)(=O)c2ccc(F)cc2)[C@H](C)CN([C@@H](C)CO)C(=O)c2cc(NS(=O)(=O)c3ccccc3)ccc2O1
  Vaccinia stage: ?	Vaccinia stage Venus: /

CO[C@H](CN(C)S(=O)(=O)c1ccc(F)cc1)[C@H](C)CN(Cc1ccccc1Cl)[C@H](C)CO
  Vaccinia stage: -14	Vaccinia stage Venus: -6

Only part of the results is shown. The share of hits here may be higher or lower than overall.
